liver stage – Plasmodium liver-stage growth inhibition, dose response, imaging, Malaria Box, P. yoelii, HepG2-A16-CD81EGFP (AID 602156); P. yoelii liver stage in HepG2-A16-CD81EGFP, imaging; first-round cut-off not given here; calls after a first round at 10 µM; hits with a dose series show IC50 in µM; 4.8% of 5,700 active; in the data active = a potency from the dose series;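 also: infected cells exposed to compound for 48 hours before fixation; stained parasite area by imaging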
* hit, by the source's call; i = inactive.

cpd	mol	liver stage
1	Clc1ccc(-c2c[n+](Cc3ccccc3Cl)c3n2CCC3)cc1Cl	i
2	CCC(C(=O)Oc1ccccc1-c1nc2cc(C)ccn2c1NC(C)(C)CC(C)(C)C)c1ccccc1 (centres undefined)	i
3	CCCCC(=O)N(C/C=C/c1ccccc1OC)CCN1CCN(C(=O)NC23CC4CC(CC(C4)C2)C3)CC1	i
4	CCOC(=O)c1[nH]c(C)c(CNc2cccc(F)c2)c1C	i
5	COc1cc(C=C(C#N)c2nc3ccccc3[nH]2)ccc1OCc1ccccc1	i
6	COc1ccc(C2C(=C(O)c3ccccc3)C(=O)C(=O)N2c2cccc(Cl)c2)c(OC)c1 (centres undefined)	i
7	CC(C)OC(=O)NC(Nc1ccccc1)C(Cl)(Cl)Cl (centres undefined)	i
8	Cc1ccc(F)cc1NC(=O)Cn1c2ccccc2c(=O)c2cc(Cl)ccc21	i
9	Cn1c(SCC2CCCO2)nnc1C1CCN(C/C=C/c2ccccc2)CC1 (centres undefined)	i
10	CCOc1ccc(C2C(C(=O)OCCc3ccccc3)=C(C)NC3=C2C(=O)CC(C)(C)C3)cc1 (centres undefined)	i

New compounds follow:
cpd	mol	liver stage
11	COc1cccc(C(=O)Oc2ccccc2-c2nc3cc(C)ccn3c2NC(C)(C)CC(C)(C)C)c1	i
12	CN(CCCNc1ccnc2cc(Cl)ccc12)C(=O)COCc1ccccc1	i
13	COc1cc2ncnc(NC3CCN(Cc4ccccc4)CC3)c2cc1OC	i
14	CC(CN1CCC(n2cc(C(=O)N3CCCC3)nn2)CC1)c1ccccc1 (centres undefined)	i
15	CSC1SCC2C(=O)N(C)C(C(C)C)C(=O)OCC(NC(=O)c3cnc4ccccc4n3)C(=O)NC(C)C(=O)N(C)C1C(=O)N(C)C(C(C)C)C(=O)OCC(NC(=O)c1cnc3ccccc3n1)C(=O)NC(C)C(=O)N2C (centres undefined)	i
16	CCOC(=O)c1oc2cc(O)c(CC)cc2c(=O)c1-c1ccc2c(c1)OCO2	i
17	O=C(Nc1ccc2c3c(cccc13)CC2)c1cccc2ccccc12	i
18	COc1cccc2cc(-c3csc(NC(=O)CCC(=O)NC4CCCC4)n3)c(=O)oc12	i
19	CCOc1ccc(NC(=O)c2ccc(F)c(S(=O)(=O)NC3CCCCCC3)c2)cc1	i
20	COCCNC(=O)c1ccc(NCCc2ccc(Cl)cc2)c(S(=O)(=O)Nc2cccc(C(F)(F)F)c2)c1	i

Going on with the list:
cpd	mol	liver stage
21	N#Cc1c(NC(=O)COc2ccc(F)cc2F)sc2c1CCC2	i
22	O=S(=O)(NCCCCNc1ccnc2cc(Cl)ccc12)c1cc(Cl)ccc1Cl	i
23	CN1C2CCC1C(=Cc1ccsc1)C(=O)C2=Cc1ccsc1	i
24	CCOC(=O)c1cnn(-c2ccnc3cc(Cl)ccc23)c1CNC(C)c1cccs1 (centres undefined)	i
25	CCOc1ccc2[nH]c(=O)c(CN(CCN(CC)CC)C(=S)NCCCN(CC)CC)cc2c1	2.2µM*
26	CN1CCN(C(=S)NC(=O)/C=C/c2ccc(F)cc2)CC1	i
27	O=C(O)CC12CC3CC(C1)CC(c1ccc([N+](=O)[O-])cc1)(C3)C2	i
28	Cc1cccc(NC(c2cccc(Cl)c2)c2ccc3cccnc3c2O)n1 (centres undefined)	i
29	CCCCCCC(=O)Oc1ccccc1-c1nc2ccccn2c1NC(C)(C)CC(C)(C)C	i
30	CCn1ccnc1CC1COc2ccccc2O1 (centres undefined)	i

Carrying on.
cpd	mol	liver stage
31	CCOC(=O)c1c(NC(=O)CSc2nnc(CNC(=O)c3cccc(C)c3)n2Cc2ccccc2)sc2c1CCCC2	i
32	OC1CCCCC1C1(NC(=S)Nc2ccccc2)CCCCC1 (centres undefined)	i
33	CCn1c(SCC(=O)Nc2ccc(OC)cc2)nc2ccsc2c1=O	i
34	CN(c1ccc(Br)cc1)S(=O)(=O)c1ccc2[nH]cc(C(=O)N3CCN(c4ccccc4)CC3)c(=O)c2c1	i
35	CCOc1cccc2c1N(C(=O)c1cccc([N+](=O)[O-])c1)C(C)(C)C(=S)C2=C1SC(C(=O)OC)=C(C(=O)OC)S1	i
36	CC1=C(C(=O)OC2CCCCC2)C(c2ccc(Cl)c(Cl)c2)C2=C(CCCC2=O)N1 (centres undefined)	i
37	CCOC(=O)C1=C(C)NC2=C(C(=O)CC(C)(C)C2)C1c1ccc(Cl)cc1 (centres undefined)	i
38	O=[N+]([O-])c1cc(Br)c(Nc2ccccc2)c([N+](=O)[O-])c1	i
39	Cc1ccc([N+](=O)[O-])cc1-c1ccc(/C=C2/SC(=S)N(CC(=O)O)C2=O)o1	i
40	CN1CCN(c2cc(-c3ccncc3)nc(-c3cccnc3)n2)CC1	i

(cont.)
cpd	mol	liver stage
41	C=C(c1ccccc1)[n+]1ccc(/C=C/c2ccccc2O)cc1	i
42	CC(=O)O[C@]1(C(C)=O)CCC2C3C=CC4=CC(=O)CC[C@]4(C)C3CC[C@@]21C (some centres undefined)	i
43	Cc1cc(Cl)ccc1NC(=O)c1ccccc1[N+](=O)[O-]	i
44	CCOC(=O)c1c(NC(C)=O)sc2c1CCN(C(C)C)C2	3µM*
45	O=C1/C(=C/c2ccccc2)Oc2c1ccc(O)c2CN1CCCCC1	i
46	COc1ccc(C=NNc2nc(-c3ccccc3)cc(=O)[nH]2)cc1OC	i
47	O=C(Nc1ccc(C(F)(F)F)cc1)c1ccc(NCCCN2CCCCCC2)c([N+](=O)[O-])c1	0.45µM*
48	CC(C)(C)CC(=O)N1CCC[C@@H]2CN(C(=O)CCOc3ccccc3)CC[C@@H]21	i
49	CCN(CC)CCCNC(=S)N(CCc1cccc(C)c1)Cc1cc2cc(OC)c(OC)cc2[nH]c1=O	i
50	N#Cc1ccc(N2CCCN(C(=S)NC3CCCC3)CC2)nc1	i

In the list so far, these contain a cyano group:
cpd	mol	liver stage
5	COc1cc(C=C(C#N)c2nc3ccccc3[nH]2)ccc1OCc1ccccc1	i
21	N#Cc1c(NC(=O)COc2ccc(F)cc2F)sc2c1CCC2	i
50	N#Cc1ccc(N2CCCN(C(=S)NC3CCCC3)CC2)nc1	i

New compounds follow
cpd	mol	liver stage
51	Fc1cccc2sc(Nc3nc(-c4ccccn4)cs3)nc12	i
52	CCCOC(=O)C1=C(C)NC2=C(C(=O)CC(c3ccc(OC)c(OC)c3)C2)C1c1ccc(Cl)c(Cl)c1 (centres undefined)	i
53	Cc1cc(N2CCCC2)nc2ccc(NC(=S)NCCN3CCc4ccccc4C3)cc12	i
54	CC[n+]1c(C=CN(C)c2ccccc2)n(-c2ccccc2)c2ccc(-c3nc4ccccc4s3)cc21	i
55	CCCOC(=O)CSc1nc(N)c(C#N)c(-c2ccco2)c1C#N	i
56	CC(C)(C)OCCN(CC(O)CN(Cc1ccccc1)C(=O)NC(c1ccccc1)c1ccccc1)S(=O)(=O)c1ccccc1 (centres undefined)	i
57	Cc1cccc(NC(=O)Nc2cccnc2)c1NC(=O)Nc1cccnc1	i
58	CCN1CCN(C2CCN(Cc3cc4ccc(F)cc4n(CCSc4ccccc4)c3=O)CC2)CC1	i
59	C[n+]1ccc(/C=C/c2ccccc2F)c2ccccc21	i
60	N#CC1=C(N)Oc2c3c(c4ccccc4c2C1c1ccc(F)cc1)C(c1ccc(F)cc1)C(C#N)=C(N)O3 (centres undefined)	3.9µM*

Next entries follow:
cpd	mol	liver stage
61	CSc1nc2nc(C)c(Cc3cccc(C(F)(F)F)c3)c(C)n2n1	i
62	O=C(CCC1CCCN(C(=O)c2ccsc2)C1)N1CCN(c2ccccn2)CC1 (centres undefined)	i
63	CCOC(=O)C1=C(O)C(=Cc2cc(C)n(-c3ccccc3C(F)(F)F)c2C)N=C1C	i
64	O=C(NC1CC1)C1CCN(c2cccc3c2C(=O)N(Cc2cccc(C(F)(F)F)c2)C3=O)CC1	0.029µM*
65	COCCn1c(SCC(=O)c2ccc(C)cc2C)nnc1-c1ccco1	i
66	Cc1cc(O)ccc1-c1cnc2ccccc2n1	i
67	COc1cccc(CNc2ncnc3sc(C(=O)NCC4COCCO4)c(C)c23)c1OC (centres undefined)	i
68	COC(=O)c1c(C)oc2ccc(N(C(=O)c3ccc(C)cc3)S(=O)(=O)c3ccccc3)cc12	i
69	COC(=O)c1cc(NC(=S)NC(=O)c2c(OC)cccc2OC)cc(C(=O)OC)c1	i
70	Cc1ccc2oc(=O)c3cnn(CC(=O)Nc4ccc(F)cc4Cl)c3c2c1	i

Four of the compounds above, with each value named:
64	O=C(NC1CC1)C1CCN(c2cccc3c2C(=O)N(Cc2cccc(C(F)(F)F)c2)C3=O)CC1
- liver stage = 0.029µM*

65	COCCn1c(SCC(=O)c2ccc(C)cc2C)nnc1-c1ccco1
- liver stage = i

66	Cc1cc(O)ccc1-c1cnc2ccccc2n1
- liver stage = i

67	COc1cccc(CNc2ncnc3sc(C(=O)NCC4COCCO4)c(C)c23)c1OC (centres undefined)
- liver stage = i

(continued)
cpd	mol	liver stage
71	CCOc1ccc(NC(=O)c2ccc(I)o2)cc1	i
72	O=c1c2ccccc2[nH]c2ccc(I)cc12	0.1µM*
73	CCCCCN1/C(=C\C=C\c2n(CC)c3cc(Cl)c(Cl)cc3[n+]2CCCCC)N(CC)c2cc(Cl)c(Cl)cc21	i
74	O=C(Nc1ccc(-n2cnnn2)cc1)C1CCN(Cc2ccc(OC(F)F)cc2)CC1	i
75	CC(=O)C1=C(O)C(=O)N(c2ccc(Br)cn2)C1c1ccccc1[N+](=O)[O-] (centres undefined)	i
76	CC(=O)c1ccc(NC(=O)CSc2nnc3c4c(-c5ccc(F)cc5)csc4ncn23)cc1	i
77	N#Cc1cccc(C=CC(=O)O)c1	i
78	CCOc1ccc2nc(C)cc(Nc3ccc(OC)cc3)c2c1	i
79	O=C1CC(c2ccccc2)CC2=C1C(c1cc(F)ccc1F)Nc1ccccc1N2 (centres undefined)	i
80	COc1ccc(C[C@H](N)C(=O)N[C@H]2[C@@H](O)[C@H](n3cnc4c(N(C)C)ncnc43)O[C@@H]2CO)cc1	i

The list continues:
cpd	mol	liver stage
81	C=C(C[N+](C)(C)C)c1ccc([N+](=O)[O-])cc1	i
82	CCn1cc(C(=O)NCCC2=CCCCC2)c(=O)c2cc(S(=O)(=O)N(C)C)ccc21	i
83	CCN(CC)c1ccc(/C=C/c2ccc3ccc(OC)cc3[n+]2CC)cc1	i
84	COC(=O)C1=C(O)/C(=C/c2cc(C)n(-c3cc(Cl)ccc3Cl)c2C)N=C1C	i
85	C=CCn1c2cc(C)sc2c2cnn(CC(=O)N3CC(C)CC(C)C3)c(=O)c21 (centres undefined)	i
86	COc1ccc(-c2n(CC(=O)OC3CC(C)CCC3C(C)C)c3ccccc3[n+]2C)cc1 (centres undefined)	0.16µM*
87	CC(C)c1ccc(NC(=O)c2ccc(NCCCN3CCN(c4cccc(Cl)c4)CC3)c([N+](=O)[O-])c2)cc1	i
88	Cc1cccc(NC(=O)N2CCN(C(=O)c3nc(-c4ccccc4)nc(C)c3C(=O)OC(C)C)CC2C)c1C (centres undefined)	i
89	CCNc1nc(NC(C)C)nc(NC(N)NOC)n1 (centres undefined)	i
90	CCOc1nc2c(c(=O)n(C)c(=O)n2C)n1Cc1cccc(Br)c1	i

Further structures:
cpd	mol	liver stage
91	CCCCOc1c2ccccc2nc2ccccc12	i
92	CCCCNC(=S)N(Cc1cccs1)Cc1cc2cc(C)ccc2[nH]c1=O	i
93	CCN1/C(=C/c2cccc[n+]2C)C=Cc2ccccc21	i
94	O=[N+]([O-])c1cc(Cl)c(N2CCOCC2)cc1N1CCOCC1	i
95	O=C(C1CCC1)N1CCN(c2ccccn2)CC1	i
96	CNC1=C(N(Cc2ccc(Cl)c(Cl)c2)C(C)=O)C(=O)c2ccccc2C1=O	i
97	Cc1ccn2c(NC(C)(C)CC(C)(C)C)c(-c3ccccc3OC(=O)C3CCCC3)nc2c1	i
98	CCCCOc1cccc(C(=O)N(Cc2cccs2)c2ccc(OC)cc2)c1	i
99	CCN(CC)C(=O)COc1ccc(-c2nnc(N3CCCCC3)c3ccccc23)cc1	i
100	CCCCCc1ccc(C(=O)N(C)CCCNc2ccnc3cc(Cl)ccc23)cc1	i

Later entries
cpd	mol	liver stage
101	CC(C)(C)NCC(O)COc1cccc2oc3ccccc3c12 (centres undefined)	i
102	O=C(CN1CCN(C(=O)c2ccco2)CC1)Nc1cc(C(F)(F)F)ccc1Cl	i
103	CCN(CC)C(=O)N1CCN(c2ccc(Nc3ccnc4cc5ccccc5cc34)cc2)CC1	i
104	Cn1c(=O)c(Cl)c2c3c(c(Cl)ccc31)C(=O)c1ccccc1-2	i
105	CC(C)c1cccc(C(C)C)c1NC(=O)N(Cc1ccccc1)C(C)c1nc2ccccc2c(=O)n1-c1ccc(Br)cc1 (centres undefined)	i
106	C=CCSc1nc2sc3c(c2c(=O)n1-c1ccccc1)CCN(C)C3	i
107	Cc1cc(C)c(C(Nc2ccccn2)c2ccc3cccnc3c2O)c(C)c1 (centres undefined)	i
108	COc1ccc(C2=C(c3ccc(OC)cc3)C3(c4ccccc4)C(=O)C2(c2ccccc2)C2C(=O)N(c4ccc(F)cc4)C(=O)C23)cc1 (centres undefined)	i
109	O=C1NC(=Nc2ccccc2)S/C1=C/c1ccc(F)c(Br)c1	i
110	CCOc1ccc2[nH]c3c(NCCCN(C)C)ncnc3c2c1	i

(cont.)
cpd	mol	liver stage
111	Cn1ccnc1C1CCCCN1C(=O)c1cc(COc2ccc(F)cc2Cl)on1 (centres undefined)	i
112	O=C(Oc1ccccc1N1C(=O)C2C3C=CC(C3)C2C1=O)c1ccc([N+](=O)[O-])cc1 (centres undefined)	i
113	Clc1ccccc1C[n+]1cc(-c2ccccc2)n2c1CCC2	i
114	O=C(NCCCCNC(=O)Nc1cccc(C2=NCCN2)c1)Nc1cccc(C2=NCCN2)c1	i
115	S=C(NCc1ccco1)NC1CC2CCC(C1)N2Cc1ccccc1 (centres undefined)	i
116	CCOc1ccc(C=NNC(=O)CCn2nnc3ccccc32)cc1	i
117	CCOC(=O)c1sc(Nc2c(Cl)cc(S(N)(=O)=O)cc2Cl)nc1C	i
118	COc1ccc(C=NN=C2NC(=O)C(CC(=O)Nc3ccccc3)S2)cc1OC (centres undefined)	i
119	CCCc1c(C)[nH]c2ccc(Br)cc2c1=O	i

From PubChem

The list is partial (hit frequency here may not be typical).
